Source: PubChem (National Center for Advancing Translational Sciences (NCATS))
MARV entry inh = Marburg virus entry inhibition | Marburg virus pseudotyped entry inhibition, cell reporter; control for the full effect not named in the record; about a third of the inactives were read at about 46 µM | Potency, µM (doses to about 37.8 µM), without a hit: top-dose activity change, negative = inhibition, usual class: inhibitors | hit rate 1.8% among 300,000; active = well fitted inhibition curve with a large enough effect; inconclusive = small, poorly fitted or top-dose-only effect, or effect the other way; inactive = flat fitted curve, though single readings scatter; tested in HEK293 cells; about a fifth of its hits are not listed in these tables; note: % is set by controls: 0 for no effect and ±100 for the full control effect; luciferase read-out
SARS PLP yeast = SARS-CoV PLP inhibition in yeast; S. cerevisiae expressing SARS-CoV PLpro, growth rescue; control for the full effect not named in the record; Potency, µM (highest dose often 32.9 µM), inactives show at the highest dose activity, positive = growth rescue; hit rate 0.19% among 330,000; AID 485353; active means well fitted rising curve with a large enough effect; inconclusive means small, poorly fitted or top-dose-only effect; inactive means no such curve, though single readings can be large or run the other way; note: 0% is about no effect; nearly all actives have a fitted effect of over 55% in size; growth read by luminescence after 48 h
StopGo reporter = FMDV 2A StopGo reporter, luciferase signal. human cells with a luciferase reporter of 2A StopGo recoding; control for the full effect not named in the record. Potency, µM (series often up to 57.9 µM), without a hit: at the top dose signal change, negative = less light. hit rate 1.2% among 410,000; active = well fitted falling curve with a large enough effect; inconclusive = small, poorly fitted or top-dose-only effect; inactive = no such curve, though single readings can be large or run the other way; tested in HEK293T cells; note: % is set by controls: 0 for no effect and ±100 for the full control effect; nearly all actives have a fitted effect of over 45% in size; luciferase light after 4 h
Cruzain noTriton = inhibitors of Trypanosoma cruzi cruzain without detergent | P25779 | hit rate 2.3% among 200,000 | Potency, µM, for the others: max response, negative = inhibition, actives largely listed as inhibitors | purified cruzain, Z-FR-AMC fluorescence, no detergent;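 note: plate controls were enzyme without inhibitor for no effect and buffer without enzyme for full effect; nearly all actives have a fitted effect of over 40% in size; top concentration of the series not given in the record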
Target sequence (P25779 123-467 limits assumed): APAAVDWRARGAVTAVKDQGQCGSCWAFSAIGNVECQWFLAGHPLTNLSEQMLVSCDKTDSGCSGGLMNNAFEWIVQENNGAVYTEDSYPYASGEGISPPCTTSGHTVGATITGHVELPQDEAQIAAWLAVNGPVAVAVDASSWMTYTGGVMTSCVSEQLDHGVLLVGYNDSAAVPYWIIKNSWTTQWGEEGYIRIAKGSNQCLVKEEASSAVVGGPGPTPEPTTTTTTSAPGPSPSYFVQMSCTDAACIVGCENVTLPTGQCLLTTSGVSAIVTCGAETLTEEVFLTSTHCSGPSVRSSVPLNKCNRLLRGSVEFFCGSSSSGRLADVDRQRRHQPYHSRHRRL
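Detergent-free condition (0.00005% Triton X-100) in acetate buffer pH 5.5 with DTT. 1.5 nM enzyme and compound were pre-mixed 15 min, then 2 uM Z-FR-AMC substrate added; reaction progress from fluorescence change between first and third reads (60 s).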
RE007 growth inh = less growth of the S. pombe RE007 Vpr strain; Potency, µM (doses to about 92.2 µM), for inactives: at the highest dose activity change, negative = less growth; AID 651644; hit rate 0.21% among 360,000; S. pombe RE007 Vpr strain, BacTiter-Glo ATP luminescence, 24 h; control for the full effect not named in the record; active = well fitted falling curve with a large enough effect; inconclusive = small, poorly fitted or top-dose-only effect; inactive = no such curve, though single readings can be large or run the other way;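 note: % is set by controls: 0 for no effect and ±100 for the full control effect; nearly all actives have a fitted effect of over 50% in size; the assay follows cell death caused by Vpr and the record does not say whether a fall means rescue or toxicity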
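Fission yeast strain RE007, carrying one chromosomally integrated HIV-1 vpr copy, was seeded at OD 0.01 in PMG+AL medium with 23 nL pinned compound. After 24 h at 30 °C and 99% humidity, viability was read by BacTiter-Glo luminescence.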
Lassa entry inh = inhibitors of Lassa virus binding or cell entry; Lassa virus pseudotype entry inhibition, cell reporter; control for the full effect not named in the record; Potency, µM (titrated, usually from 37.9 µM), for inactives: at the highest dose activity change, negative = inhibition, actives largely listed as inhibitors; hit rate 1.2% among 300,000; AID 540256; active means well fitted inhibition curve with a large enough effect; inconclusive means small, poorly fitted or top-dose-only effect, or effect the other way; inactive means flat fitted curve, though single readings scatter; tested in HEK293 cells; note: % is set by controls: 0 for no effect and ±100 for the full control effect; nearly all actives have a fitted effect of over 50% in size; luciferase read-out
NS1 inh = inhibitors of influenza NS1 protein function; hit rate 0.4% among 270,000; AID 2326; Potency, µM (titrated, usually from 46.1 µM), without a hit: at the highest dose activity, positive = more growth; S. cerevisiae slowed by influenza A NS1, growth recovery by OD600; active means well fitted rising curve with a large enough effect; inconclusive means small, poorly fitted or top-dose-only effect; inactive means no such curve, though single readings can be large or run the other way; note: nearly all actives have a fitted effect of over 50% in size
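Read-out: OD600 growth recovery of NS1-expressing budding yeast. Cells grown overnight at 30C in -URA glucose medium, washed, resuspended and diluted 1:100 in 2% galactose assay medium, pH 6.0. Same strain lacking NS1 served as positive control.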
Cruzain Triton = inhibitors of Trypanosoma cruzi cruzain with detergent. P25779. purified cruzain, Z-FR-AMC fluorescence, 0.01% Triton. Potency, µM, for the others: max response, negative = inhibition, actives largely listed as inhibitors. hit rate 0.43% among 200,000;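 note: plate controls were neutral wells for no effect and buffer without enzyme for full effect; nearly all actives have a fitted effect of over 40% in size; top concentration of the series not given in the record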
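Read-out: AMC fluorescence (360 nm excitation, 450 nm emission), four reads over 2 min, first-to-third difference used. Conditions: cruzain 1.5 nM, Z-FR-AMC 2 uM, pH 5.5 acetate, 5 mM DTT, 0.01% Triton X-100.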
Active calls of the source: *; ? = inconclusive; . = not tested or not shown; & = joins results of further samples; [ ] = another dose, or the depositor's remark. Unless noted, calls come from the whole dose curve; as a rule, active = well fitted curve in the direction sought with a large enough effect; inconclusive = small, poorly fitted or top-dose-only effect, or another doubt; inactive = no such curve, though single readings can be large; an effect the other way counts as inactive or inconclusive. Potency is the fitted concentration of half-maximal effect.

SMILES | MARV entry inh | SARS PLP yeast | StopGo reporter | Cruzain noTriton | RE007 growth inh | Lassa entry inh | NS1 inh | Cruzain Triton
CC(C)CCNc1nc2c(cc1C#N)COC(C)(C)C2 | -15.1%&-15.1%[46.1 µM] | -5.5% | ? | 0.1% | -24.8% | -2.4% | -15.7% | -4.7%
O=C(CC1C(=O)N(c2ccc(F)cc2)C(=O)N1Cc1ccccn1)Nc1ccccc1 (configuration not stated) | 19.6% | 5.6% | -2.2% | -2.6% | 4.0% | -18.2% | 7.2% | -1.3%
COc1ccc(CC(=O)N2CCN(C)CC2)cc1OC | 7.6% | -0.7% | . | -6.2% | 14.3% | 18.7% | -4.8% | 2.0%
C1CCC(Nc2nnnn2C2CCCCC2)CC1 | -2.4%[46.1 µM] | 2.7% | 23.0% | 4.5% | 16.3% | -0.4% | 3.1% | 4.2%
CCCC(C)C(=O)Nc1ccc(S(=O)(=O)N2CCCC2)cc1 (configuration not stated) | 4.1% | 4.5% | -2.1% | . | 0.6% | -18.0% | 28.6% | .
COc1ccc(N(CC(=O)NCc2ccco2)S(C)(=O)=O)cc1Cl | 10.7% | -7.1% | 3.6% | 3.4% | 4.4% | 11.8% | 5.1% | 0.8%
Cc1ccc(NC(=O)C2=NNC(=O)CC2)cc1S(=O)(=O)Nc1ccc(SC(F)F)cc1 | ? | -5.3% | 8.5% | . | 1.8% | ? | . | .
CC(C)CNC(=O)c1ccccc1NC(=O)c1ccccc1N(C)S(=O)(=O)c1ccccc1 | ? | 17.1% | 23.8% | 0.3% | 7.4% | -3.0% | 6.7% | -1.6%
CNS(=O)(=O)c1cn(CC(=O)Nc2ccc(C)c(N(C)C)c2)cc1S(=O)(=O)NC | . | . | 27.1% | 9.1% | . | 5.5%[46.1 µM] | . | -2.4%
CC(NC(=O)C(Cc1ccccc1)NC(=O)c1ccccc1)C(=O)O (configuration not stated) | 23.8% | -0.1% | -4.0% | -3.3% | -3.3% | 0.5% | 4.7% | 1.5%
COc1ccc(OC)c(CCNC(=O)c2cc3c(-c4ccccc4F)nn(C)c3s2)c1 | ? | . | ? | 1.5% | . | ? | . | -2.6%
O=C(NCCOc1ccc(Cl)cc1)c1ccc2ccccc2n1 | ? | -2.3% | 6.9% | . | -18.5% | -16.9% | -46.7% | .
COc1ccccc1N1CCN(S(=O)(=O)c2c(C)sc3ncn(CC(=O)Nc4ccc(C(C)C)cc4)c(=O)c23)CC1 | -0.6%[46.1 µM] | . | -7.2% | ? | . | 1.0%[46.1 µM] | . | -0.7%
CCOC(=O)c1cc(-c2ccccc2)n(CCC(=O)Nc2ccccc2CC)c1C | . | . | -13.4% | -11.7% | . | 9.5%[46.1 µM] | . | -1.3%
CCOC(=O)N1CCC(Nc2c([N+](=O)[O-])cc(C(=O)O)cc2[N+](=O)[O-])CC1 | . | 2.4% | -22.7% | . | -5.9% | . | 1.6% | .
O=C(c1ccccc1)N1CCN(S(=O)(=O)N2CCCCC2)CC1 | 2.2% | 1.6% | 0.0% | -1.7% | 10.1% | -22.7% | ? | 1.3%
CCOC(=O)c1c(C)[nH]c(C)c1S(=O)(=O)N(C)CC(=O)NCc1ccc(F)cc1 | . | -4.0% | -2.8% | . | -3.7% | . | 4.5% | .
Cc1cc(C(=O)OCC(=O)Nc2ccccc2F)c(C)n1C1CC1 | -1.7% | 4.8% | 75.6%[activator] | . | 0.5% | 2.1% | . | .
CCOC(=O)[C@@H]1[C@H]2COc3ccccc3[C@H]2N2C(=O)N(c3ccc(OC)cc3)C(=O)[C@]12C | . | 4.1% | -10.4% | . | -14.1% | . | 6.6% | .
Cc1ccc(-c2nc(CS(=O)CC(=O)NCc3ccccc3)c(C)o2)cc1 (configuration not stated) | . | 7.7% | 3.4% | 9.4% | -5.7% | . | 4.5% | 3.1%
CCCNc1c(NS(=O)(=O)c2cccc(C#N)c2)c(=O)oc2ccccc12 | . | -7.8% | 0.3% | . | 6.5% | . | 0.9% | .
Nn1c(SCC(=O)Nc2ccccc2Br)nnc1-c1ccco1 | -7.2%[46.1 µM] | -28.2% | 2.9% | . | 1.5% | -0.3%[46.1 µM] | 6.9% | .
COc1c(O)ccc2cnn(-c3ccccc3C)c(=O)c12 | 0.0% | 20.4% | -4.3% | 3.7% | 13.0% | -5.5% | -16.0% | 0.2%
CC(=O)n1cc([C@@H]2C=C(C(=O)N3CCN(Cc4ccccc4)CC3)O[C@H](OCc3ccc(CO)cc3)C2)c2ccccc21 | . | 0.2% | ? | . | -11.1% | . | -2.0% | .
CC12CC3CC(C)(C1)CC(C(=O)NCc1ccco1)(C3)C2 | 4.0%[46.1 µM] | -4.5% | -16.1% | . | 10.5% | 13.7% | 0.3% | .

Structures listed so far containing a COOH group:
SMILES | MARV entry inh | SARS PLP yeast | StopGo reporter | Cruzain noTriton | RE007 growth inh | Lassa entry inh | NS1 inh | Cruzain Triton
CC(NC(=O)C(Cc1ccccc1)NC(=O)c1ccccc1)C(=O)O (configuration not stated) | 23.8% | -0.1% | -4.0% | -3.3% | -3.3% | 0.5% | 4.7% | 1.5%
CCOC(=O)N1CCC(Nc2c([N+](=O)[O-])cc(C(=O)O)cc2[N+](=O)[O-])CC1 | . | 2.4% | -22.7% | . | -5.9% | . | 1.6% | .

Individual results from the entries so far:
In SARS PLP yeast, CC(=O)n1cc([C@@H]2C=C(C(=O)N3CCN(Cc4ccccc4)CC3)O[C@H](OCc3ccc(CO)cc3)C2)c2ccccc21 has the entry 0.2%
In Cruzain noTriton, C1CCC(Nc2nnnn2C2CCCCC2)CC1 has the entry 4.5%
In RE007 growth inh, CCCNc1c(NS(=O)(=O)c2cccc(C#N)c2)c(=O)oc2ccccc12 has the entry 6.5%
In Cruzain Triton, O=C(CC1C(=O)N(c2ccc(F)cc2)C(=O)N1Cc1ccccn1)Nc1ccccc1 (configuration not stated) has the entry -1.3%
In SARS PLP yeast, CCOC(=O)c1c(C)[nH]c(C)c1S(=O)(=O)N(C)CC(=O)NCc1ccc(F)cc1 has the entry -4.0%

Later entries
SMILES | MARV entry inh | SARS PLP yeast | StopGo reporter | Cruzain noTriton | RE007 growth inh | Lassa entry inh | NS1 inh | Cruzain Triton
CC1CCN(C(=O)CCNC(=O)c2ccccc2)CC1 | ? | -1.4% | 31.1%[activator] | . | -8.8% | 21.9% | -5.1% | .
COCCCN(C(=O)c1ccccc1)c1nc(-c2ccc(OC)cc2)cs1 | . | 7.1% | -18.0% | . | 0.7% | . | -28.3% | .
O=C(NCc1nnnn1-c1cccc(F)c1)c1ccc(S(=O)(=O)N2CCOCC2)cc1 | 7.8% | 1.8% | -15.4% | . | 13.2% | ? | . | .
COC(=O)c1cc2oc(C)cc2n1CC(=O)Nc1ccc(C(C)C)cc1 | ? | . | 17.3% | -22.0% | . | . | . | -9.3%
N#Cc1sc2nc(C3CC3)cc(-c3ccccc3)c2c1N | -19.6% | 7.7% | 0.0% | -5.5% | -4.0% | -22.7% | -8.7% | -9.5%
COc1ccccc1C(=O)Nc1nnc(S(=O)(=O)N2CCC(C)CC2)s1 | 28.4%[46.1 µM] | -4.4% | 9.0% | . | 0.3% | ? | 16.9% | .
CCCCN(CC)CCCNC(=O)c1cn(CC(C)C)c(=O)c2c1c1ccccc1n2C | ? | -1.1% | -23.2%&-1.1% | 0.0% | -6.9% | 4.3%[46.1 µM] | -3.7% | -3.1%
O=C(CCNC(=O)c1ccc(Br)o1)NC1CCCC1 | ? | -3.3% | -11.0% | 1.8% | 7.2% | -3.4% | 7.1% | 1.1%
CC(C)(C)/C(COc1ccccc1[N+](=O)[O-])=N/O | . | -0.6% | 1.0% | . | -11.6% | . | -5.1% | .
Cc1ccc(O)c(-c2cc(C(=O)Nc3ccc(S(=O)(=O)Nc4nc(C)cc(C)n4)cc3)[nH]n2)c1 | ? | 17.8% | 31.9%[activator] | 15.8% | 42.7% | ? | ? | -9.8%
CCOC(=O)C1(CC2CCCCO2)CCN(C(=O)Nc2ccccc2)CC1 (configuration not stated) | 3.5%[46.1 µM] | -0.4% | 17.1% | . | -12.3% | 2.0% | 4.6% | .
COc1cc(/C=N/NS(=O)(=O)c2ccc(C)cc2)ccc1OCc1ccc(C(=O)O)cc1 | ? | -1.6% | -36.9% | . | 2.0% | 6.31µM* | . | .
CCCn1cc(SCC(N)=O)c2ccccc21 | . | -2.8% | -20.0% | . | -1.7% | . | -15.6%&1.7% | .
COc1ccc(C2C(C(C)=O)=C(O)C(=O)N2c2ccc(Br)cc2)cc1 (configuration not stated) | . | 2.8% | 6.1% | . | 0.0% | . | 18.7% | .
O=C(NCc1ccc2c(c1)OCO2)c1cc2ccccc2oc1=O | 15.4% | -13.2% | -5.0% | 5.0% | -14.6% | 2.3% | 12.9% | 9.8%
Cc1ccccc1OCC(=O)N/N=C/c1cccn1C | -17.5% | 3.7% | 15.0% | -6.7% | 22.5% | 12.1% | -5.0% | -1.6%
COc1ccccc1-c1cc(C(F)(F)F)nc(S(=O)(=O)CCCC(=O)Nc2cccnc2Cl)n1 | ? | -6.0% | 14.1µM* | . | -7.4% | ? | . | .
O=C(NCCS(=O)(=O)N1CCN(c2ccccc2F)CC1)c1ccc2c(c1)OCO2 | 12.8% | . | -13.4% | . | 0.6% | 3.9% | . | .
CN1CCN(c2ccc(NC(=O)CSc3nnnn3-c3ccccc3F)cc2)CC1 | ? | 1.8% | 14.4% | . | -5.7% | -25.0%[46.1 µM] | -14.6% | .
Cc1nn(C)c2ncc(C(=O)c3cc(F)ccc3O)cc12 | ? | -1.5% | ? | 0.0% | -16.3% | -0.4% | -12.4% | -2.0%
Clc1ccc(CNC2CCCC2)c(Cl)c1 | -12.5% | -2.7% | . | -9.7% | 0.0% | -14.0% | -3.9% | 2.3%
COCCn1nnnc1SCC(=O)N1CCCCC1 | 2.2%[46.1 µM] | 8.8% | -10.1% | 12.5% | 31.3% | -5.0% | -2.1% | 0.8%
Cc1ccccc1CNC(=O)c1ccc(Cl)c([N+](=O)[O-])c1 | 6.6% | 7.7% | -14.6% | 0.5% | 2.2% | 0.2% | -3.3% | -2.7%
